Source: PubChem
Vaccinia Venus – inhibitors of vaccinia virus (Venus reporter) | Vaccinia virus Venus reporter expression, fluorescence | Potency, µM (series often up to 36.5 µM), for the others: at the top dose activity change, negative = inhibition, hits mostly inhibitors | actives 0.46% (n = 330,000) | AID 720580; active means well fitted inhibition curve with a large enough effect; inconclusive means small, poorly fitted or top-dose-only effect; inactive means no such curve, though single readings can be large or run the other way; tested in A549 cells; further: nearly all actives have a fitted effect of over 30% in size; inactives centre near -10
VACV mCherry inh – vaccinia inhibition (mCherry reporter); Vaccinia virus mCherry reporter infection, fluorescence; about a quarter of the inactives have no number; Potency, µM (doses to about 36.5 µM), for the others: top-dose activity change, negative = inhibition, usual class: inhibitors; actives 0.63% (n = 310,000); active = well fitted inhibition curve with a large enough effect; inconclusive = small, poorly fitted or top-dose-only effect; inactive = no such curve, though single readings can be large or run the other way; tested in A549 cells; further: nearly all actives have a fitted effect of over 35% in size; inactives centre near -10
* hit, by the source's call; & = joins results of further samples; [ ] = remark or other dose. On the % scale 0 is the no-effect control and ±100 the full control effect; potency means the concentration at half of the fitted maximal effect.

`O=C(Nc1ccc(F)c(Cl)c1)N(Cc1ccc2c(c1)OCO2)C1CCN(Cc2ccccc2)CC1` gave Vaccinia Venus -14.6% and VACV mCherry inh inactive.
`O=C(CCNC(=O)c1ccc(Cl)cc1)Nc1c(F)c(F)cc(F)c1F` gave Vaccinia Venus -11.6% and VACV mCherry inh -9.4%.
For CCS(=O)(=O)c1ncc(Cl)c(C(=O)Nc2c(C(=O)Nc3cccc(C)c3)oc3ccccc23)n1 the results were Vaccinia Venus -8.8% and VACV mCherry inh -19.8%.
`O=C(c1ccccc1Cl)N1CCN(CCc2ccccn2)CC1` gave Vaccinia Venus -28.2% and VACV mCherry inh inactive.
`COc1ccc(C(=O)N2CCC(n3nccc3NC(=O)C3CCOC3)CC2)cc1` (centres undefined) gave Vaccinia Venus -13.5% and VACV mCherry inh inactive.
Screening O=C(N/N=C/c1cccs1)C(=O)N1CCCC1 returned Vaccinia Venus -5.4% and VACV mCherry inh -0.6%.
CCC(C(=O)N1CCN(C(=O)c2ccco2)CC1)n1sc2ccccc2c1=O (centres undefined) was read as Vaccinia Venus 3.9%[7.34 µM] and VACV mCherry inh -1.1%[7.34 µM].
Screening COC(=O)C1(c2ccccc2)NC(c2cccs2)C2C(=O)N(c3ccccc3)C(=O)C21 (centres undefined) returned Vaccinia Venus -7.5% and VACV mCherry inh -14.8%.
Screening CC(C)CCC1(CCO)C(=O)NC(=S)NC1=O returned Vaccinia Venus -9.4% and VACV mCherry inh -13.1%.
Cc1cc(CN(C)C(=O)C2CCC(=O)N(CCc3cccc(F)c3)C2)on1 (centres undefined) was read as Vaccinia Venus -6.3% and VACV mCherry inh -8.8%.
For CCOC(=O)c1[nH]c2ccccc2c1NC(=O)CC(C)C the results were Vaccinia Venus -22.9% and VACV mCherry inh inconclusive.
`Cc1nn(C)c(C)c1CNC(=O)Nc1ccc2c(c1)OCO2` gave Vaccinia Venus 5.8% and VACV mCherry inh inactive.
For CCc1c(C(=O)Nc2ccc(S(=O)(=O)N3CCOCC3)cc2)csc1C the results were Vaccinia Venus -13.8% and VACV mCherry inh -6.9%.
For CCc1nc2ccccc2c(NC(=O)CN2CCC(C)CC2)c1C the results were Vaccinia Venus -19.2%.
For O=C(Nc1cccc(S(=O)(=O)N2CCCCC2)c1)C1CCCN1S(=O)(=O)c1ccccc1F (centres undefined) the results were Vaccinia Venus -13.5% and VACV mCherry inh -1.5%.
Screening O=C(OCc1ccccc1)N1CCC2CC1c1ccc(N3CCOCC3)cc12 (centres undefined) returned Vaccinia Venus -20.3% and VACV mCherry inh -3.5%.
For O=C(Nc1cnn(Cc2ccc(F)cc2)c1)C(c1ccccc1)c1ccccc1 the results were Vaccinia Venus inconclusive and VACV mCherry inh inconclusive.
`O=C(O)c1cccnc1SCc1cccc(Cl)c1` gave Vaccinia Venus 0.3%&-10.1% and VACV mCherry inh 9.0%&-17.5%.
`CCOCCOC(=O)c1ccc2c(c1)N(Cc1ccccc1C#N)C(=O)c1ccccc1S2(=O)=O` gave Vaccinia Venus -16.9% and VACV mCherry inh -6.4%.
Cc1ccc(S(=O)(=O)N2CCCC2C(=O)n2nc(C)cc2C)cc1 (centres undefined) was read as Vaccinia Venus -18.8% and VACV mCherry inh -18.8%.
For CN(Cc1nc(-c2ccc(C(F)(F)F)cc2)no1)C1CCOCC1 the results were Vaccinia Venus -13.1% and VACV mCherry inh inactive.
Screening CCn1c(SCC(=O)OC)nnc1-c1ccccc1 returned Vaccinia Venus 0.7% and VACV mCherry inh -9.1%.
`COc1ccc(Cl)cc1C(=O)NCCc1ccc(S(=O)(=O)NC(=O)NC2CCCCC2)cc1` gave Vaccinia Venus -10.7%&-12.3%&-2.9% and VACV mCherry inh -18.4%&-13.0%.
O=C(/C=C/c1ccco1)N1CCN(c2ccccc2)CC1 was read as Vaccinia Venus 6.1% and VACV mCherry inh inactive.
CN(C(=O)c1cc(-c2cccs2)nn1-c1ccccc1)C1CCS(=O)(=O)C1 (centres undefined) was read as Vaccinia Venus -0.6% and VACV mCherry inh inactive.
For O=C(Cn1nc(C(=O)O)c2ccccc2c1=O)NCc1ccco1 the results were Vaccinia Venus -5.5% and VACV mCherry inh -10.3%.
`O=C(Cc1ccc(S(=O)(=O)N2CCOCC2)s1)N(Cc1ccccc1)c1ccccc1` gave Vaccinia Venus -10.9% and VACV mCherry inh -16.6%.
`COc1ccc(NC(=S)Nc2ccc(S(=O)(=O)N3CCOCC3)cc2)c(OC)c1` gave Vaccinia Venus -0.8% and VACV mCherry inh -18.7%.
Screening COc1ccc(Cl)cc1NC(=O)COC(=O)CCNS(=O)(=O)c1cccs1 returned Vaccinia Venus -14.8% and VACV mCherry inh -18.7%.
`COc1ccc(N(CC(=O)N2CCN(c3cc(C)ccc3C)CC2)S(=O)(=O)c2c(C)noc2C)cc1` gave Vaccinia Venus -1.1% and VACV mCherry inh -8.7%.
Screening CCOc1cc(-c2noc(CCC(=O)N3CCOCC3)n2)ccc1OC returned Vaccinia Venus -19.2% and VACV mCherry inh -26.7%.
Screening CC(C)(C)C(=O)N1Cc2cnnn2-c2ccccc2C1C#N (centres undefined) returned Vaccinia Venus -11.9% and VACV mCherry inh -17.8%.
Screening CCC(=O)c1cn(CC(=O)Nc2cccc(OC)c2)c2ccccc12 returned Vaccinia Venus -22.6% and VACV mCherry inh inactive.
COc1ccccc1NC(=O)Cn1c(=O)n(Cc2nc(-c3ccccc3)no2)c(=O)c2ccccc21 was read as Vaccinia Venus -12.4% and VACV mCherry inh -6.7%.
NCCc1cccc(O)c1 was read as Vaccinia Venus -9.0%&-5.5% and VACV mCherry inh -14.5%&-13.5%.
Screening O=C(NN=C1CCCC1)c1cc(-c2ccc(F)cc2)nc2ccccc12 returned Vaccinia Venus -22.0% and VACV mCherry inh -22.7%.
Screening N#Cc1nc(-c2ccc(OCc3ccccc3)cc2)oc1NCCCN1CCOCC1 returned Vaccinia Venus -27.0% and VACV mCherry inh -27.6%.
For C=CCc1cc(Cl)ccc1OCCNCCN1CCOCC1 the results were Vaccinia Venus -12.9% and VACV mCherry inh -13.6%.
For C/C(=N/NC(=O)c1cc(C)[nH]n1)c1ccco1 the results were Vaccinia Venus -23.7% and VACV mCherry inh inconclusive.
CCO[C@@H]1OC(C(=O)N2CCOCC2)=C[C@H](C2CC2)[C@H]1CCCO was read as Vaccinia Venus -13.2% and VACV mCherry inh inactive.
CCOC(=O)c1c(-c2cccc3ccccc23)csc1NC(=O)C1C2CCC(O2)C1C(=O)O (centres undefined) was read as Vaccinia Venus 2.0% and VACV mCherry inh -21.4%.
`CC(C)c1nc(SCC(=O)Nc2ccc3c(c2)OCCO3)c2c(=O)n(C)c(=O)n(C)c2n1` gave Vaccinia Venus -3.7% and VACV mCherry inh inactive.
`CSc1nc2c(cc1C#N)CCC2` gave Vaccinia Venus -12.4% and VACV mCherry inh -10.6%.
For COc1ccc(CNc2ncnc(N)n2)cc1 the results were Vaccinia Venus -23.0%.
`Cc1cccc(-c2nc(CN3C(=O)CN=C(c4ccccc4)c4ccccc43)c(C)o2)c1` gave Vaccinia Venus -11.8% and VACV mCherry inh -12.4%.
`CCOC(=O)N1CCN(C(=O)c2cnsn2)CC1` gave Vaccinia Venus -18.6% and VACV mCherry inh -25.3%.
For O=C(Cc1ccccc1Cl)NCCCn1ccnc1 the results were Vaccinia Venus -19.8% and VACV mCherry inh -2.0%.
COc1cc(=O)n2c(c1C(=O)N(C)Cc1nonc1C)CCN(Cc1ccccc1F)CC2 was read as Vaccinia Venus 1.0% and VACV mCherry inh -2.3%.
`CC(=O)Nc1ccc(NC(=O)Cn2c(=O)n(-c3ccc(C)cc3)c(=O)c3oc4ccccc4c32)cc1` gave Vaccinia Venus -7.4% and VACV mCherry inh -10.6%.
COC(=O)CCc1nc2c(C#N)c(-c3ccc(Cl)cc3)ccn2n1 was read as Vaccinia Venus -5.2% and VACV mCherry inh -5.3%.
For C[C@H](C(O)c1ccccc1)N(C)C(=O)CN (some centres undefined) the results were Vaccinia Venus -5.3% and VACV mCherry inh -13.1%.
c1ccc(CSc2ncnc3ccccc23)cc1 was read as Vaccinia Venus -12.3% and VACV mCherry inh inactive.
`Cc1ccc(C(=O)N/C(=C\c2ccc(-c3ccccc3[N+](=O)[O-])o2)C(=O)NCCCN(C)C)cc1` gave Vaccinia Venus 9.5% and VACV mCherry inh -14.5%.
For CC1(OC(=O)CCc2ccccc2)C(=O)C=C2C=C(c3ccc(C#N)cc3)N(C3CCCCC3)C=C2C1=O (centres undefined) the results were Vaccinia Venus -20.1% and VACV mCherry inh inactive.
Screening Brc1ccc(-c2noc(COc3ccc4c(c3)CCC4)n2)o1 returned Vaccinia Venus -14.6% and VACV mCherry inh -7.9%.
`CCCc1ccc(OC(=O)c2ccc(O)cc2Cl)cc1` gave Vaccinia Venus inconclusive and VACV mCherry inh -20.5%.
For Cc1ccc(C)c(N2CCN(c3ncnc4onc(C)c34)CC2)c1 the results were Vaccinia Venus inconclusive and VACV mCherry inh inconclusive.
Screening O=C(Oc1ccc(Cl)c2cccnc12)c1cccnc1 returned Vaccinia Venus inconclusive and VACV mCherry inh inconclusive.
`CCc1ccc2c(c1)c(=O)c(C(=O)c1ccc(C)cc1)cn2CC(=O)Nc1ccc2c(c1)OCCO2` gave Vaccinia Venus -8.7% and VACV mCherry inh -9.1%.
Screening CCCCNC(=O)C1(C)CCCCCN1Cc1cc2ccccc2o1 (centres undefined) returned Vaccinia Venus 7.9% and VACV mCherry inh 12.7%.
Screening CC1(C)CC(=O)C=C(Nc2ccccc2N)C1 returned Vaccinia Venus -8.6% and VACV mCherry inh -16.0%.
`N#Cc1cccc(NC(=O)NCCc2c[nH]c3ccccc23)c1` gave Vaccinia Venus -14.3% and VACV mCherry inh 27.4%.
Cc1cc(C)nc(N/N=C/c2cccc([N+](=O)[O-])c2)n1 was read as Vaccinia Venus -12.6% and VACV mCherry inh inactive.
Screening CCOc1ncccc1C(=O)OCC(=O)NCc1ccc2c(c1)OCO2 returned Vaccinia Venus -15.0% and VACV mCherry inh -15.1%.
For COc1ccc(-n2c(Cc3cccn3C)nnc2SCC(=O)Nc2cccc(F)c2)cc1 the results were Vaccinia Venus -1.2% and VACV mCherry inh -6.3%.
`COc1ccc(OCc2nnc(SCC(=O)NC3CC4CCC3C4)o2)cc1` (centres undefined) gave Vaccinia Venus -2.7% and VACV mCherry inh inactive.
For C=CCN(CC=C)Cc1c(C)[nH]c2c(C)c(C)ccc2c1=O the results were Vaccinia Venus -6.0% and VACV mCherry inh -9.0%.
`CC(=O)Nc1ccc(OC(F)(F)Cl)cc1` gave Vaccinia Venus -5.4% and VACV mCherry inh inactive.
For N=c1sccn1Cc1ccccc1F the results were Vaccinia Venus -15.1% and VACV mCherry inh inactive.
For CC(NC(=O)c1cccc(S(=O)(=O)N(C)C)c1)c1nc2ccccc2[nH]1 (centres undefined) the results were Vaccinia Venus -3.3% and VACV mCherry inh -2.1%.
CS(=O)(=O)N(CC(=O)N1CCCCCC1)c1cccc(F)c1 was read as Vaccinia Venus -13.5% and VACV mCherry inh -14.8%.
Screening O=[N+]([O-])c1ccccc1CNc1ccc(F)c(Cl)c1 returned Vaccinia Venus -21.0% and VACV mCherry inh -29.4%.
CCc1ccc(OCC(=O)Nc2cc(-c3nc4cc(C)ccc4o3)ccc2C)cc1 was read as Vaccinia Venus -12.4% and VACV mCherry inh -6.2%.
For O=C(Nc1cccc(NC(=O)c2ccccc2Cl)c1)c1ccc([N+](=O)[O-])o1 the results were Vaccinia Venus inconclusive and VACV mCherry inh 7.94µM*.
COc1ccc(OCc2nnc(SCC(=O)Nc3nnc(C4CC4)s3)n2C)cc1 was read as Vaccinia Venus -13.6% and VACV mCherry inh inactive.

A draw from above in order of molar mass, falling.
For COc1ccc(-n2c(Cc3cccn3C)nnc2SCC(=O)Nc2cccc(F)c2)cc1 the results were Vaccinia Venus -1.2% and VACV mCherry inh -6.3%.
COc1ccc(OCc2nnc(SCC(=O)Nc3nnc(C4CC4)s3)n2C)cc1 was read as Vaccinia Venus -13.6% and VACV mCherry inh inactive.
CCc1ccc(OCC(=O)Nc2cc(-c3nc4cc(C)ccc4o3)ccc2C)cc1 was read as Vaccinia Venus -12.4% and VACV mCherry inh -6.2%.
For O=C(Nc1cccc(NC(=O)c2ccccc2Cl)c1)c1ccc([N+](=O)[O-])o1 the results were Vaccinia Venus inconclusive and VACV mCherry inh 7.94µM*.
For CC(NC(=O)c1cccc(S(=O)(=O)N(C)C)c1)c1nc2ccccc2[nH]1 (centres undefined) the results were Vaccinia Venus -3.3% and VACV mCherry inh -2.1%.
For N=c1sccn1Cc1ccccc1F the results were Vaccinia Venus -15.1% and VACV mCherry inh inactive.

(continued)
For Cc1cc(C(=O)CSc2ccc(Cl)cc2)cc(C)c1OC(=S)N(C)C the results were Vaccinia Venus inconclusive.
`Cc1cc(C)n2nc(SCn3nnc4ccccc4c3=O)nc2n1` gave Vaccinia Venus -5.7% and VACV mCherry inh -11.0%.
`Cn1ccnc1SCC(=O)Nc1cccc(S(=O)(=O)N2CCCCCC2)c1` gave Vaccinia Venus -5.9% and VACV mCherry inh -4.5%.
Screening COc1ccccc1CC(=O)N1CCN(C(=O)c2ccco2)CC1 returned Vaccinia Venus -12.3% and VACV mCherry inh -0.1%.
CCCC(=O)NNC(=O)Nc1ccccc1 was read as Vaccinia Venus -10.6% and VACV mCherry inh -13.3%.
CCn1c(-c2ccccc2)c(C(=O)CC#N)c2ccccc21 was read as Vaccinia Venus 2.8% and VACV mCherry inh inactive.
For O=C(NCC(=O)N(c1ccc(F)cc1)C(C(=O)NC1CCCCC1)c1ccncc1)c1ccco1 (centres undefined) the results were Vaccinia Venus 4.7% and VACV mCherry inh inactive.
